# Mtb MenB inh = Mtb MenB enzyme inhibition; P9WNP5; MenB enzyme assay, absorbance read-out; some hits fall short of the stated cut; inhibition, %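 (about 12 µg/mL by stock and volumes)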; 100,000 tested, 0.43% active;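 active = mean of two replicates above 30%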;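 also: 0% = no compound and 100% = wells with inactive enzyme; the first replicate is given; strong numbers were not always called active; inactives centre near -10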
# Target sequence (P9WNP5 whole entry, looked up): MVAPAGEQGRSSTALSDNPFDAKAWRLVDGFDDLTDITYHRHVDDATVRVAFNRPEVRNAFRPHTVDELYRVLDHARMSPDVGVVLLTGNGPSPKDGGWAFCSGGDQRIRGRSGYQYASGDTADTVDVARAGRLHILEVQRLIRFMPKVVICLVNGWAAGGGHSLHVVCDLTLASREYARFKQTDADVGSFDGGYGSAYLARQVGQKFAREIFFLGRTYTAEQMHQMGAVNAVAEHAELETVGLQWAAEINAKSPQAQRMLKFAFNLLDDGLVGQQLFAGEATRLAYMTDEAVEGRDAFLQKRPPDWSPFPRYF
# Mtb MbtI inh = inhibitors of Mycobacterium tuberculosis siderophore enzyme MbtI; purified MbtI enzyme, fluorescence intensity read-out; inhibition, %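 (about 17 µg/mL by stock and volumes)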; 100,000 tested, 0.89% active; AID 493033;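 active = above 50% in both replicates, above 80% if mildly self-fluorescent; inactive = the rest, strongly fluorescent compounds included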;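 also: 0% = mean of negative and 100% = mean of positive controls; one replicate is shown; some compounds called inactive have numbers as strong as hits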
# PV pol inh = poliovirus RNA polymerase inhibition; P03300; poliovirus polymerase elongation, fluorescence polarization; active compounds read low; % elongation, % (compound at 16.7 µg/mL); 150,000 tested, 0.66% active; AID 588519; in the data active = % elongation below about 90%; also: some results filed as inactive read as strong as hits
# Target sequence (P03300 1749-2209 limits assumed): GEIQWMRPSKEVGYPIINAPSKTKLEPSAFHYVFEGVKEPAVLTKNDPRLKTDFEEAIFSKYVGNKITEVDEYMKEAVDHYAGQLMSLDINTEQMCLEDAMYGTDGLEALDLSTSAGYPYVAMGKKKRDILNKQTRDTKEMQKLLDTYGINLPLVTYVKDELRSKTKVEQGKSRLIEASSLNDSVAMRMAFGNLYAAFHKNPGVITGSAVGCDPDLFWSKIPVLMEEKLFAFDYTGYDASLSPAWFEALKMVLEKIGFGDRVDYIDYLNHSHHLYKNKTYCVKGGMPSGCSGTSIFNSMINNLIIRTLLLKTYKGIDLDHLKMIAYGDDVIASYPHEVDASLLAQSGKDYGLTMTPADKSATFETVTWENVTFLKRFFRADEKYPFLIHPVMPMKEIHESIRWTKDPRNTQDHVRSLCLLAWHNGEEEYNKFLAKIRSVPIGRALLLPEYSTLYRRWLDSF
# PV pol inh intensity = also measured in PV pol inh; calls as there; % elongation; measured here: total intensity read-out; formula for this scale not given here;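 total fluorescence in place of polarization; lower means less elongation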
# The depositor's hits bear a star; i = inactive; x = not tested or not shown.
SMILES,Mtb MenB inh,Mtb MbtI inh,PV pol inh,PV pol inh intensity
CCN(CC(=O)Nc1ccc(C#N)cc1)C1CCCCC1,-19,5,103,105
Fc1cc(Br)ccc1N=Cc1ccc2ncccc2c1,x,-4,104,105
N#CC1(NC(=O)CSc2nnc3ccccn23)CCCCC1,-4,85,104,107
COc1ccc(Nc2cc(C(=O)O)c3ccccc3n2)cc1,-24,-11,102,98
COc1ccc(N=Cc2cc3ccc(C)cc3nc2Cl)cc1,x,-6,100,108
O=C(NC1CCS(=O)(=O)C1)c1ccco1 (stereo not drawn),x,-3,99,99
Nc1c2c3c(sc2nc(=O)n1N)CCCC3,-4,18,100,102
O=C(Cn1c(=O)oc2ccccc21)NC(=O)NC1CCCC1,-28,9,95,93
O=C(O)c1nn2cccnc2c1Cl,9,1,100,99
O=c1[nH]c(=O)n(Cc2ccccc2)c2ncn(Cc3ccco3)c12,-12,-17,107,121
O=C(O)CC1C(=O)NCCN1CC(c1ccccc1)c1ccccc1 (stereo not drawn),-2,-13,100,100
COCCNCc1nc(NCCOC)c2c(C)c(C)sc2n1,8,6,97,90
CNS(=O)(=O)c1ccc2nc(N)sc2c1,-74,-10,95,103
COc1cc2c(cc1OC)C(COc1cccc(C(F)(F)F)c1)N(C(=O)c1ccco1)CC2 (stereo not drawn),-6,5,103,105
COC(=O)c1c(NC(=O)CN2CCC3(CC2)OCCO3)sc2c1CCCC2,-6,-30,101,103
COC(=O)CNc1c(F)c(F)nc(F)c1F,-13,-1,104,110
CC1=C(C(=O)Nc2nccs2)C2(CCCCCC2)OC1=O,-9,-13,99,102
NNC(=O)C(NC(=O)c1ccccc1)c1n[nH]c(=O)c2ccccc12 (stereo not drawn),-6,2,100,102
Nc1nnc(SCC(=O)N2CCc3ccccc32)s1,-19,47,100,105
CCC(NS(=O)(=O)c1c(C)[nH]c(=O)[nH]c1=O)C12CC3CC(CC(C3)C1)C2 (stereo not drawn),1,x,100,105
CSc1sc(Cl)c(Cl)c1S(=O)(=O)C(C)C,12,1,103,103
O=C(COC(=O)Cc1ccc(Br)cc1)NCc1ccco1,-12,-3,106,108
NS(=O)(=O)c1ccc(N=Cc2c(O)[nH]c3ccccc23)cc1,-409,7,101,105
CCOC(=O)N1CCC(NC(=O)C2CCCN(C(=O)N3CCOc4ccccc43)C2)CC1 (stereo not drawn),-3,-1,102,107
CC(=O)N1CCC(C(=O)OCC#N)(c2ccccc2)CC1,6,4,105,104

# Next compounds:
SMILES,Mtb MenB inh,Mtb MbtI inh,PV pol inh,PV pol inh intensity
COC(=O)c1c(C)[nH]c(C(=O)C(C)N2CCCc3ccccc32)c1C (stereo not drawn),-13,-16,102,107
Cc1c(C(=O)NCC(C)C)oc2c1ccc1ccccc12,5,63,115,110
Cn1nnc2c(sc3nc(N4CCOCC4)c4c(c32)CCCC4)c1=O,-7,-2,103,97
Cc1cc2ncn(CCc3ccccc3)c2cc1C,-6,3,103,99
Cc1ccc(S(=O)(=O)/N=S(\C)c2ccccc2)cc1 (stereo not drawn),-4,-4,111,113
Cc1c(C(=O)O)oc2ccc3nc(N(C)C)sc3c12,-29,-8,103,106
CC1=NN(C(=O)COc2ccccc2C)C(O)(c2ccc(Cl)cc2)C1 (stereo not drawn),-37,-6,100,99
Cc1cccc2c(C(=O)O)cc(-c3cccnc3)nc12,-20,-2,101,105
CCNc1nnc(-c2ccccc2OC)s1,-5,x,101,107
Cc1nc(-c2ccccc2)sc1C(=O)NCC1CCCO1 (stereo not drawn),-2,-11,101,103
CC(=O)NCc1ccc(C2CCCCC2)cc1,x,-4,103,109
CCOC(=O)C1CCCN(C(=O)c2cccc(NC(=O)C(CC)CC)c2)C1 (stereo not drawn),11,-3,102,103
COc1cc(Cl)c(C)cc1NCC(=O)Nc1cccnc1Cl,x,5,103,107
Cc1nc(COc2ccccc2Cl)sc1C(=O)/C=C/N(C)C,-23,-1,105,111
S=C(Nc1ccccn1)NC1CC2CCC1C2 (stereo not drawn),-25,14,105,116
CC(C)NC(=O)COc1cccc2ccccc12,1,-2,101,103
CSc1ccc(/C=N/NC(=O)C2CC2)cc1,-26,-49,101,105
NNc1ccccn1,x,39,99,116
O=C(/C=C/c1cccc(F)c1)NCCCn1ccnc1,x,-4,100,107
Cc1ccc(/C=C/C(=O)Nc2ccc3nc4n(c(=O)c3c2)CCCC4)cc1,-11,-1,104,102
CCn1c(=O)c(=O)[nH]c2cc(S(=O)(=O)N(C)C)ccc21,-4,3,105,112
O=C(Nc1ccccc1)N1CCC2(CC1)OCCO2,12,9,103,98
NS(=O)(=O)c1ccc(C2CCCCC2)cc1,-31,-10,100,98
CCN1C(=O)c2cccc3c(S(=O)(=O)NCCCn4ccnc4)ccc1c23,-39,20,103,102
c1ccc2c(c1)nc(N1CCCC1)c1nncn12,-22,-2,102,107

# Only Mtb MbtI inh, Mtb MenB inh and PV pol inh (2 entries from above):
canonical_smiles,Mtb MbtI inh,Mtb MenB inh,PV pol inh
Cc1c(C(=O)O)oc2ccc3nc(N(C)C)sc3c12,-8,-29,103
CC1=NN(C(=O)COc2ccccc2C)C(O)(c2ccc(Cl)cc2)C1 (stereo not drawn),-6,-37,100

# Of the compounds above, 4 contain two or more sulfur atoms.
SMILES,Mtb MenB inh,Mtb MbtI inh,PV pol inh,PV pol inh intensity
CNS(=O)(=O)c1ccc2nc(N)sc2c1,-74,-10,95,103
Nc1nnc(SCC(=O)N2CCc3ccccc32)s1,-19,47,100,105
CSc1sc(Cl)c(Cl)c1S(=O)(=O)C(C)C,12,1,103,103
Cc1ccc(S(=O)(=O)/N=S(\C)c2ccccc2)cc1 (stereo not drawn),-4,-4,111,113

# (cont.)
SMILES,Mtb MenB inh,Mtb MbtI inh,PV pol inh,PV pol inh intensity
CN1C(=O)NC(c2ccccc2)C2=C1CN(CCc1ccccc1)C2=O (stereo not drawn),-20,x,108,107
COc1ccc(-c2cn3nc(N4CCCC(C(=O)Nc5cc(Cl)ccc5C)C4)sc3n2)cc1 (stereo not drawn),3,-6,99,102
COc1cccc(NC(=O)C(c2ccccc2)N2CCCCC2)c1 (stereo not drawn),-12,-3,104,113
Cc1nc2ccc(S(=O)(=O)NC(CC(C)C)C(=O)NC3CCCCCC3)cc2s1 (stereo not drawn),-3,8,102,101
Cn1ccc(P(=O)(N2CCOCC2)N2CCOCC2)c1,-2,-4,106,108
COc1ccc(N2C(=O)/C(=C\c3ccco3)N=C2SCC(N)=O)cc1Cl,-133,-2,102,105
O=C1/C(=C/NCc2ccco2)S(=O)(=O)N(Cc2ccccc2)c2ccsc21,-17,-13,101,103
O=S1(=O)N=CNc2ccc(S(=O)(=O)NCc3ccccc3)cc21,-3,11,101,102
O=c1[nH]c(Nc2ccc3c(c2)OCO3)nnc1Cc1ccc(F)cc1,-3,-12,103,104
Oc1ccc(Br)cc1C1CC(c2ccccc2)=NC(c2ccco2)N1 (stereo not drawn),-30,26,100,105
Nc1ccc(C(=O)NCC2CCCN3CCCCC23)cc1 (stereo not drawn),-6,x,108,123
COC(=O)NC(=O)c1ccc(Cl)cc1,-25,-6,97,103
Cc1cc(C)n2nc(C(=O)Nc3cccnc3)cc2n1,-32,i,101,102
Brc1ccc(CSc2nnc(-c3ccc4c(c3)OCO4)o2)cc1,-6,-11,103,111
CCN(CC)C(=O)CSc1nc(N)c(C(=O)Nc2ccc(OC)cc2)s1,-23,-25,100,102
c1ccc2oc(C3CCNCC3)nc2c1,-14,-10,105,100
CCCCC1(C)OC(=O)C(=Cc2ccc(F)cc2)C(=O)O1 (stereo not drawn),-1,-6,102,104
NC(=O)C1CCCN1C(=O)CCC(=O)O (stereo not drawn),-16,-7,103,100
COc1c(Cl)cnn(-c2cccc(C)c2)c1=O,-8,12,100,100
O=C(COc1ccc(F)cc1)NCCCn1ccnc1,-43,2,100,103
O=C1CCC(c2ccccc2)=NN1Cc1c(F)cccc1Cl,7,-6,101,106
CCOC(=O)c1c(C)n(C)c2ccc(O)c(CN3CCC(C)CC3)c12,x,-2,102,106
Nc1ccnn1Cc1ccccn1,-14,-9,106,105
Cc1sc2nc(CSC(C)C(=O)OCn3nnc4ccccc4c3=O)[nH]c(=O)c2c1C (stereo not drawn),-15,24,108,113
Cc1csc(SCCCn2c(=O)[nH]c3ccccc32)n1,0,16,101,104

# Full records, looked up by structure:
# COc1ccc(N2C(=O)/C(=C\c3ccco3)N=C2SCC(N)=O)cc1Cl is listed with Mtb MenB inh: -133; Mtb MbtI inh: -2; PV pol inh: 102; PV pol inh intensity: 105
# O=C(NC1CCS(=O)(=O)C1)c1ccco1 (stereo not drawn) is listed with Mtb MenB inh: x; Mtb MbtI inh: -3; PV pol inh: 99; PV pol inh intensity: 99
# Cc1nc(COc2ccccc2Cl)sc1C(=O)/C=C/N(C)C is listed with Mtb MenB inh: -23; Mtb MbtI inh: -1; PV pol inh: 105; PV pol inh intensity: 111

# (cont.)
SMILES,Mtb MenB inh,Mtb MbtI inh,PV pol inh,PV pol inh intensity
Cc1ccc(-n2c(-c3cnccc3C(F)(F)F)noc2=O)c(C)c1,14,1,101,96
Cc1ccc(N(C)C(=O)c2cc(S(=O)(=O)N3CCCC3)cn2C)cc1,-13,-2,102,102
Cc1ccc2nc(NC(=O)/C=C/c3ccccc3)sc2c1,x,-15,102,106
CCOc1ccc(OCCN2C(=O)NC(Cc3c[nH]c4ccccc34)C2=O)cc1 (stereo not drawn),-14,-8,110,111
O=C(c1ccccc1)N(Cc1ccco1)CC(O)Cn1c2ccccc2c2ccccc21 (stereo not drawn),-34,18,106,106
COc1ccc(N2CC(NC(=O)NCC3CCCO3)CC2=O)cc1OC (stereo not drawn),20,19,105,101
COc1ccc(CC(=O)n2[nH]c(=O)c3ccccc3c2=O)cc1OC,-3,3,101,100
CS(=O)(=O)Nc1ccc(Br)cc1,-1,x,105,113
CCN(CC(=O)NCc1cccs1)c1ccc(S(=O)(=O)N2CCCC2)cn1,5,8,x,x
CCC(=O)NC1CC2C(=O)Nc3c(C)cccc3C2OC1=O (stereo not drawn),-8,x,126,140
CC(C)CC1NC(=O)N(C)C1=O (stereo not drawn),0,-2,101,107
CCCn1c2ccccc2c2cnn(CC(=O)N(C)Cc3ccccc3)c(=O)c21,-28,152,104,103
Cc1nc(NC(CC(C)C)C(=O)O)c2nc(C)oc2n1 (stereo not drawn),10,-1,102,102
Cc1sc2ncnc(SCc3ccccc3C#N)c2c1C,-24,14,101,92
O=C(NCc1ccccc1)C1CCN(c2cnccn2)CC1,-17,-14,104,102
O=CN1CCN(C(=O)c2ccco2)CC1,-25,-5,99,100
CC(C)c1ccc(S(=O)(=O)NCCOC23CC4CC(CC(C4)C2)C3)cc1,-5,x,107,113
Cn1c(-c2ccccc2)cc(C=Nc2ccccc2)c1O,-36,19,105,112
N#Cc1cc2c([nH]c1=S)CCC2,-49,81,103,100
COC(=O)C12CC3(C)CC(C)(C1)CC(C(=O)OC)(C3)C2,x,-4,105,106

# Not a retest: 6 of the compounds above.
SMILES,Mtb MenB inh,Mtb MbtI inh,PV pol inh,PV pol inh intensity
O=C(NCc1ccccc1)C1CCN(c2cnccn2)CC1,-17,-14,104,102
O=CN1CCN(C(=O)c2ccco2)CC1,-25,-5,99,100
CC(C)c1ccc(S(=O)(=O)NCCOC23CC4CC(CC(C4)C2)C3)cc1,-5,x,107,113
Cn1c(-c2ccccc2)cc(C=Nc2ccccc2)c1O,-36,19,105,112
N#Cc1cc2c([nH]c1=S)CCC2,-49,81,103,100
COC(=O)C12CC3(C)CC(C)(C1)CC(C(=O)OC)(C3)C2,x,-4,105,106

# Screens from PubChem BioAssay.

# Outcome played no part in choosing rows; overall some 1.8% were active at least once.
